HNF4A DNA FP: change in binding of human HNF4 alpha to DNA; P41235; HNF4a-FITC DNA binding, fluorescence polarization, 1 h; activity change, % at 10 µM; 360,000 compounds, 0.3% hits; AID 1224865; in the data active = activity change above about 30%, passing the limit was not always enough;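 also: controls were the assay level and a saturating level of protein; the project sought stronger binding though the title names inhibitors; some compounds called inactive have numbers as strong as hits; positive values seem to mean higher polarization but the record does not say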
Ecoli growth: inhibitors of Escherichia coli growth; OD600, 23 h; stronger effect = lower value; 330,000 compounds, 0.21% hits; OD600 absorbance (no concentration beside the values);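 active = OD600 absorbance below the run mean of sample wells minus 3.6 SD, in any replicate, cut at about 0.56 in these data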;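 also: stock transfer was 300 nL into about 60 µL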
Beta2AR agonist: human beta-2 adrenergic receptor agonism by FAP | 340,000 compounds, 0.43% hits | P07550 | response, % (concentration not given with the values) | Am2.2-beta2AR cells, FAP receptor internalization, flow cytometry; reference of the scale not given here;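 active = response above a set limit, near 3 SD of response in nonfluorescent compounds, cut at about 42% in these data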;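 also: stock transfer was 100 nL into about 11 µL; a reference agonist was the positive control; negative values mostly stem from fluorescent compounds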
Target sequence (P07550 whole entry, looked up): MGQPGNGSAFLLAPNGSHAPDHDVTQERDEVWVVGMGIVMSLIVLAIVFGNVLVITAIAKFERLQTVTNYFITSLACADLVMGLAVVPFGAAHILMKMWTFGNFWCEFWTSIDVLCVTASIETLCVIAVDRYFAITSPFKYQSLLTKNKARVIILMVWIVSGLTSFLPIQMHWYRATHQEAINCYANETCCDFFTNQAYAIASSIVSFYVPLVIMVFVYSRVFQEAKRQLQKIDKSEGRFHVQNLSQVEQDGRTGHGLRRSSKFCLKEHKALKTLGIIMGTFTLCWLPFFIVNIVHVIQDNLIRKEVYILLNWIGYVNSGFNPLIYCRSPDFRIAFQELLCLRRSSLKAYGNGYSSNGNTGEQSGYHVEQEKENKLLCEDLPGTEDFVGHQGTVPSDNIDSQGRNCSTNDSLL
ALR inh: blocks human ALR sulfhydryl oxidase activity. purified ALR, DTT oxidation, H2O2 HRP-luminol luminescence. inhibition, % (concentration not given with the values). 290,000 compounds, 3.8% hits. AID 485317;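 active = mean and each replicate at 75% or more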;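 also: stock transfer was 7.5 nL into about 7.5 µL; 0% = neutral wells and 100% = wells with inactivated enzyme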
FGF22 binding: FGF22 (human) thermal shift binding. calls only at 9.99 µM. recombinant FGF22 thermal shift, SYPRO orange fluorescence; percent of sucrose octasulfate shift, DMSO zero. AID 651658. 340,000 compounds, 1.5% hits;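 active = melting point raised past a set limit in the mean and every replicate; three in four hits are not shown here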
Target sequence (Q9HCT0 whole entry, looked up): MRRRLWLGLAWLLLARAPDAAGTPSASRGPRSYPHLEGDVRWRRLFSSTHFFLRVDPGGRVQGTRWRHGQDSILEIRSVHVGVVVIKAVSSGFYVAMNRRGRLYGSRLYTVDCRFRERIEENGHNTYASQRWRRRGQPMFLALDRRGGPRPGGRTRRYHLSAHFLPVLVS
Ecoli rRNA inh: selective bacterial rRNA inhibition in E. coli; E. coli WT GFP vs humanized-ribosome RFP mutants, fluorescence, 24 h; stronger effect = lower value; DMSO median 0, no signal -100; GFP signal change (wild-type ribosome), % (concentration not given with the values); 350,000 compounds, 1.6% hits; AID 720706;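 active = significant combined selectivity score with lowered wild-type GFP, culture density cut under 30%, mutant RFP and density less affected; inactive = any of these conditions unmet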; also: one replicate is shown; some compounds called inactive have numbers as strong as hits
UCH37 inh: inhibitors of human deubiquitinating enzyme UCH37. Q9Y5K5. purified proteasome/UCH37, Ub-AMC cleavage fluorescence. inhibition, % (concentration not given with the values). 330,000 compounds, 0.33% hits;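 active = mean of two replicates above 20%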;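 also: 0% = compound-free wells with enzyme and 100% = wells lacking proteasome; stock transfer was 100 nL into about 20 µL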
Target sequence (Q9Y5K5 whole entry, looked up): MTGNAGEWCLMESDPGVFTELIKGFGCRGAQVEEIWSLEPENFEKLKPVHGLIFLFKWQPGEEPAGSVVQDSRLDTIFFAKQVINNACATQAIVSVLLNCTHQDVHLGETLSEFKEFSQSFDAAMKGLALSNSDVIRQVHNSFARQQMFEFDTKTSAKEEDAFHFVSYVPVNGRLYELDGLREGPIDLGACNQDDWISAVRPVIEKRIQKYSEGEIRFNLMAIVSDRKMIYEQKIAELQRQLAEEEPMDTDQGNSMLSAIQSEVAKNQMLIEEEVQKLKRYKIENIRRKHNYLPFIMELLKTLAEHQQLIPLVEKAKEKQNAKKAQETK
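Assay system: Proteasome-bound UCH37. Buffer or medium: pH 7.4 Tris-HCl (50 mM) with ovalbumin, ATP-MgCl2, DTT. Incubation: 30 min preincubation with enzyme, 25 min cleavage at room temperature. Measured by: fluorescence, ex 355 nm, em 460 nm. Read-out basis: percent inhibition. Control set: wells without proteasome as full block, compound-free enzyme plus substrate as uninhibited.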
Ecoli rRNA inh OD600: also measured in Ecoli rRNA inh; calls as there; OD600 change, %; measured here: OD600 growth;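 optical density of the mix in the first replicate; 0 = DMSO median and -100 = no signal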
Ecoli rRNA inh RFP: also measured in Ecoli rRNA inh; calls as there; RFP signal change, %; measured here: RFP humanized mutant strains;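 first replicate; 0 = DMSO median and -100 = no signal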
* marks the source's active call; other numbers are inactive results; i = inactive; nt = no result given; & = joins results of further samples. Only part of the results is shown. The share of hits here may be higher or lower than overall.

SMILES | HNF4A DNA FP | Ecoli growth | Beta2AR agonist | ALR inh | FGF22 binding | Ecoli rRNA inh | Ecoli rRNA inh OD600 | Ecoli rRNA inh RFP | UCH37 inh
COc1ccc(NC(=O)C2CCCN(S(=O)(=O)c3c(C)n[nH]c3C)C2)cc1 (stereo unspecified) | -1.5 | 0.68 | 4 | -3 | nt | nt | nt | nt | 3.6
CC(C)(C)C1CCC(=NNc2ccc(S(N)(=O)=O)cc2[N+](=O)[O-])CC1 (stereo unspecified) | -3.7 | 0.65 | -7 | -2 | i | nt | nt | nt | 2.4
COCCn1nnnc1C(c1cc2c(C)cc(C)cc2[nH]c1=O)N1CCCCCC1 (stereo unspecified) | -5.2 | 0.69 | 5 | -18 | nt | nt | nt | nt | 0.1
Cc1ccc(NC(=O)CSc2nnc(CNC(=O)c3ccco3)o2)cc1Cl | -2.1 | 0.67 | 3 | -1 | i | 3 | 8 | -1.3 | -0.8
CCOC(=O)Cc1csc(NC(=O)CSc2nnc3ccccn23)n1 | -1.4 | 0.66 | -4 | -9 | i | -3 | 1 | -2.3 | -2.3
CC1(C)CC(=O)C2=C(C1)NC(SCC(N)=O)=C(C#N)C21CCCCC1 | 4.6 | 0.78 | -5 | nt | nt | nt | nt | nt | -103
O=C(c1nnsc1S(=O)(=O)c1ccc(Cl)cc1)N1CCOCC1 | 1.0 | 0.65 | 24 | nt | i | 4 | 6 | 7.6 | 2.2
COCCNC(=S)N/N=C/c1ccc(N2CCOCC2)cc1 | 4.8 | nt | -3 | 99* | i | 9 | 13 | 6.6 | nt
O=C(Nc1ccccc1N1CCOCC1)c1ccc(N2CCOCC2)c([N+](=O)[O-])c1 | -0.4 | 0.68 | -3 | -5 | i | -2 | -1 | 0.0 | 5.6
CCC(NC(=O)Nc1ncccc1C)(C(F)(F)F)C(F)(F)F | -1.8 | 0.76 | 2 | -11 | nt | nt | nt | nt | -4.5
N/C(CSc1ccccn1)=N\OCc1c(Cl)cccc1Cl | -0.5 | 0.66 | 21 | -2 | i | -15 | 0 | -1.7 | 0.0
N#C/C(=C/c1ccc(N2CCCCCC2)o1)c1cccc(F)c1 | 98 | 0.7 | -181 | 1 | nt | nt | nt | nt | 7.9
Cc1ccc2cc(C#N)c(NCCNC(=S)NCCCN(C)C)nc2c1C | 2.6 | 0.67 | 16 | -17 | i | 5 | 10 | 3.7 | -61
CCCn1c(C2CC(=O)N(c3cc(OC)ccc3OC)C2)nc2ccccc21 (stereo unspecified) | -1.0 | 0.71 | 6 | -45 | i | -4 | -14 | -2.0 | 1.1
COc1ccc(-c2nnc(-c3ccc(N(C)C)cc3)o2)cc1 | -3.0 | 0.72 | 12 | nt | nt | nt | nt | nt | -158
O=C(NCC(=O)N1CCN(S(=O)(=O)/C=C/c2ccccc2)CC1)c1ccccc1F | -0.8 | 0.69 | 3 | 0 | i | 11 | 11 | 2.4 | 1.9
COc1cc2c(cc1OC)C(C(=O)Nc1cc(OC)c(OC)c(OC)c1)C(c1cccnc1)N(C)C2=O (stereo unspecified) | 0.8 | 0.74 | 1 | -1 | i | 4 | 9 | -0.8 | 5.1
COc1ccc(NC(=O)C(Cc2cc(C)cc(C)c2)C(C)C(=O)O)cc1 (stereo unspecified) | 3.7 | nt | 9 | 0 | i | 7 | -1 | -3.2 | nt
C[C@H]1CN([C@@H](C)CO)C(=O)c2cc(NS(=O)(=O)c3ccc(Cl)cc3)ccc2O[C@@H]1CN(C)CC1CCCCC1 | -3.0 | 0.76 | 1 | 2 | i | 1&10 | 12&8 | 0.0&-3.7 | 2.3
O=C(/C=C/c1ccc([N+](=O)[O-])o1)NNC(=O)c1ccc(F)cc1 | 0.8 | 0.43* | 24 | -13 | i | -17 | -15 | -7.3 | 3.8
Cc1ccc(SCC(=O)Nc2cccnc2)cc1 | 1.5 | 0.71 | -2 | 5 | nt | nt | nt | nt | 3.7
COc1ccc(CC(=O)N2CCN(c3cccc(C)c3C)CC2)cc1 | 2.6 | 0.69 | -4 | -3 | i | -28 | -42 | -2.2 | 4.1
C=CCn1c(SCC(=O)N(CC)CC)nc(O)cc1=O | 0.8 | 0.7 | 3 | -7 | nt | nt | nt | nt | 1.5
Cc1ccc(OCC(=O)Nn2cnnc2)c(Br)c1 | -1.6 | 0.7 | -3 | -4 | i | 6 | 1 | -7.3 | 5.7
CCNc1nc(NC(C)C)nc(Oc2ccc(OCCOc3ccccc3)nn2)n1 | -0.5 | 0.63 | -10 | -5 | i | -8 | -20 | -2.1 | 1.9
CCCn1nc(C(=O)Nc2cccc(S(=O)(=O)N(C)c3ccccc3)c2)c2ccccc2c1=O | -0.8 | 0.66 | 11 | -11 | i | nt | nt | nt | -0.4
CC(C)(C)C1CCc2c(C(=O)NNC(=O)/C=C/C(=O)O)csc2C1 (stereo unspecified) | 0.0 | 0.72 | 48* | 29 | nt | nt | nt | nt | 0.5
COc1cccc(N2CCN(C(=S)Nc3ccc(F)cc3)CC2)c1 | 2.6 | 0.68 | -11 | 4 | i | 6 | 12 | -2.5 | 3.2
COCC(=O)N(C)C1(c2nnnn2CCOC(=O)Nc2cccc3ccccc23)CCCC1 | -1.7 | 0.75 | 5 | -93 | nt | nt | nt | nt | -1.5
COc1ccc(-n2c(COc3cccc4cccnc34)nnc2SCC(=O)O)cc1 | 0.0 | 0.67 | -2 | nt | i | 10 | 2 | -7.6 | -2.1
CCOC(=O)c1[nH]c(C(=O)O)c(CCC(=O)OC)c1C | -0.2 | 0.66 | -3 | nt | i | 7 | 15 | -2.8 | -0.9
C/C(CC(=O)NC12CC3CC(CC(C3)C1)C2)=N\NC(=O)c1ccc(F)cc1 | 1.0 | nt | 6 | 3 | i | 5 | 6 | 3.0 | nt
O=C(NCCC1=CCCCC1)C1CCN(C(=O)c2ccc(Cl)cc2)CC1 | 4.8 | 0.7 | -9 | -2 | i | -7 | 0 | 3.8 | 5.1
O=c1[nH]cnc(O)c1N=Nc1ccccc1 | -0.5 | 0.68 | -1 | -4 | i | 1 | 9 | 2.7 | 13
CC1CCCN(C(=S)Nc2ccc(Nc3ccccc3)cc2)C1 (stereo unspecified) | 0.9 | 0.69 | 16 | 99* | i | -30 | -25 | 2.3 | 2.9
O=C(CCN1CCOCC1)c1ccccc1 | 0.2 | 0.62 | 5 | 8 | i | 5 | 10 | 0.8 | 2.6
COc1ccc(N(CC(C)C)S(=O)(=O)c2nnc(NC(=O)c3ccco3)s2)cc1 | -3.2 | 0.67 | 14 | 6 | i | -28 | -53 | -1.9 | 4.1
COC(=O)c1sc(N2C(=O)C(O)=C(C(=O)c3ccc(C)o3)C2c2cc(OC)ccc2OC)nc1C (stereo unspecified) | 9.7 | nt | 9 | 7 | i | 0 | -1 | 5.3 | nt
O=S(=O)(c1ccccc1)c1nc(-c2ccco2)oc1N1CCCCC1 | -2.3 | 0.6 | -7 | nt | i | 8 | 8 | -1.0 | 1.1
Cc1ccc(CN2CCSc3ccc(C(=O)N4CCN(c5ncccn5)CC4)cc32)cc1 | -2.6 | 0.7 | 3 | 6 | nt | nt | nt | nt | -65
O=C1c2ccccc2NC(c2ccc(O)cc2)N1c1ccccc1 (stereo unspecified) | 0.9 | 0.68 | 1 | 4 | i | 1 | 0 | -2.2 | -251
Cn1cccc1/C=N/N1CCN(Cc2ccc(Cl)cc2)CC1 | 1.1 | nt | 2 | 71 | i | nt | nt | nt | nt
CNC(=O)/C(C#N)=C/c1c(N(Cc2ccccc2)Cc2ccccc2)nc2c(C)cccn2c1=O | 0.4 | 0.71 | 60* | -32 | nt | nt | nt | nt | 1.3
CC(C)(O)[C@@H]1CC[C@@](C)(C2CC[C@]3(C)C2[C@H](O)CC2[C@@]4(C)CC[C@H](O)C(C)(C)C4[C@@H](O[C@H]4O[C@@H](CO)[C@H](O)[C@@H](O)[C@@H]4O[C@@H]4O[C@H](CO)[C@@H](O)[C@H](O)[C@H]4O)C[C@]23C)O1 (stereo in doubt) | -2.3 | nt | -5 | -5 | i | 7 | 4 | 1.0 | -1.8
CCOC(=O)C(CC)(CC)C(=O)/C=C/c1cccc(Br)c1 | -0.9 | 0.74 | 15 | 2 | nt | nt | nt | nt | -3.0
O=C(Cn1nnc(-c2ccccc2)n1)N/N=C/c1cccc([N+](=O)[O-])c1 | 2.4 | nt | -8 | -5 | nt | nt | nt | nt | nt
CC(=O)c1ccc(OCC(=O)N2CCCC2c2ccc3c(c2)OCCCO3)cc1 (stereo unspecified) | 0.6 | 0.69 | 2 | -4 | i | -1 | -5 | -2.3 | 3.1
CCOC(=O)c1c(C)[nH]c(C(=O)OCC(=O)Nc2cc(C)nn2-c2ccccc2)c1C | 4.5 | 0.67 | 13 | -1 | i | -4 | 5 | 1.3 | -4.8

Seven records drawn at random from the list so far, as already listed:
SMILES | HNF4A DNA FP | Ecoli growth | Beta2AR agonist | ALR inh | FGF22 binding | Ecoli rRNA inh | Ecoli rRNA inh OD600 | Ecoli rRNA inh RFP | UCH37 inh
CC(C)(O)[C@@H]1CC[C@@](C)(C2CC[C@]3(C)C2[C@H](O)CC2[C@@]4(C)CC[C@H](O)C(C)(C)C4[C@@H](O[C@H]4O[C@@H](CO)[C@H](O)[C@@H](O)[C@@H]4O[C@@H]4O[C@H](CO)[C@@H](O)[C@H](O)[C@H]4O)C[C@]23C)O1 (stereo in doubt) | -2.3 | nt | -5 | -5 | i | 7 | 4 | 1.0 | -1.8
Cn1cccc1/C=N/N1CCN(Cc2ccc(Cl)cc2)CC1 | 1.1 | nt | 2 | 71 | i | nt | nt | nt | nt
O=C(Cn1nnc(-c2ccccc2)n1)N/N=C/c1cccc([N+](=O)[O-])c1 | 2.4 | nt | -8 | -5 | nt | nt | nt | nt | nt
CCOC(=O)C(CC)(CC)C(=O)/C=C/c1cccc(Br)c1 | -0.9 | 0.74 | 15 | 2 | nt | nt | nt | nt | -3.0
O=C1c2ccccc2NC(c2ccc(O)cc2)N1c1ccccc1 (stereo unspecified) | 0.9 | 0.68 | 1 | 4 | i | 1 | 0 | -2.2 | -251
COc1ccc(N(CC(C)C)S(=O)(=O)c2nnc(NC(=O)c3ccco3)s2)cc1 | -3.2 | 0.67 | 14 | 6 | i | -28 | -53 | -1.9 | 4.1
O=S(=O)(c1ccccc1)c1nc(-c2ccco2)oc1N1CCCCC1 | -2.3 | 0.6 | -7 | nt | i | 8 | 8 | -1.0 | 1.1

(continued)
SMILES | HNF4A DNA FP | Ecoli growth | Beta2AR agonist | ALR inh | FGF22 binding | Ecoli rRNA inh | Ecoli rRNA inh OD600 | Ecoli rRNA inh RFP | UCH37 inh
Cc1cc(C)c(C(=O)N(CCN(C)C)CC2CCCN(Cc3ccccc3F)C2)o1 (stereo unspecified) | 9.1 | 0.64 | 6 | -4 | i | 13 | 7 | 0.0 | 0.1
COc1ccccc1NC(=O)c1ccccc1S(=O)(=O)c1ccc([N+](=O)[O-])cc1 | 1.3 | 0.68 | 3 | -19 | i | 2 | 6 | 0.8 | 2.0
COc1ccc(-c2cc(C(=O)N/N=C(\C)c3cccnc3)c3ccccc3n2)c(OC)c1 | 0.7 | nt | 8 | 34 | i | 0 | 6 | 0.2 | nt
CN(Cc1ccccc1)C(=O)CCC1CCN(C(=O)CCC(F)(F)F)CC1 | 3.4 | 0.67 | -4 | nt | i | -1 | 7 | -2.8 | 1.6
Cc1cc(=O)n2nc(N3CCCC(C(=O)N4CCN(C)CC4)C3)sc2n1 (stereo unspecified) | 0.0 | 0.71 | -3 | 3 | nt | nt | nt | nt | 0.2
